From PubChem
Tg IFNy HTS: T. gondii growth inhibition under IFN-gamma. actives 3.8% (n = 69,000). activity change, negative = inhibition, %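 (about 20 µM by stock and volumes)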. AID 1259416. Toxoplasma gondii growth in IFN-gamma-treated host cells; stronger effect = lower value; reference of the scale not given here;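 active = below -70%; inconclusive = fit judged invalid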;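 also: host cells are HeLa cells infected with Toxoplasma gondii; parasite growth read as luciferase light; one replicate is shown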
The depositor's hits bear a star; i = inactive; ? = inconclusive; ! = not confirmed by another sample.

SMILES	Tg IFNy HTS
O=C(c1cc(CN2CCCC(O)C2)on1)N1CCc2ccccc2C1 (stereo not drawn)	-2.5
CCCc1nc(C)c(CNC(=O)C2CCOC2)s1 (stereo not drawn)	-2.3
O=C(CN1CCC(N2CCCCC2)CC1)Nc1ccc2c(c1)OCCO2	14.8
CCOC(=O)C1CCN(C(=O)c2cc(C(C)(C)C)nn2Cc2ccccc2)CC1	4.2
CN(CCc1ccccn1)c1nc2ncccc2o1	-6.2
Cc1ccc(S(=O)(=O)c2cnc(N3CCC(C(N)=O)(N4CCCCC4)CC3)nc2N)cc1	25.2
Cc1nnc(CNC(=O)CCSc2ccc3c(c2)OCCO3)o1	-0.5
O=C(C[C@@H]1CC[C@@H]2[C@H](COC[C@H](O)CN2Cc2ccc(C(F)(F)F)cc2)O1)N1CCc2ccccc2C1	-2.0
C[C@H]1C[C@@H]2CN(C(=O)CCc3ccc(Cl)cc3)CC[C@H]2O1	-0.5
O=C(O)c1cccc(-c2noc(-c3ccccc3F)n2)c1	-34.1
CCN1C(=O)N(Cc2cccc(OC)c2)C(=O)C12CCN(Cc1ccccc1Cl)CC2	-38.1
CCOc1ccccc1NC(=O)NCC(c1cccnc1)c1cn(C)c2ccccc12 (stereo not drawn)	i
CC(=O)OCc1ccc(CN2CCC(C3Nc4ccccc4S(=O)(=O)N3)CC2)o1 (stereo not drawn)	52.9
COc1ccc(-c2nc(C)c(CCNC(=O)c3ccc(OC)c(OC)c3)s2)cc1	425.6
COc1ccc(-c2nc(Nc3ccc(Cl)cc3C)c3ccccc3n2)cc1	-84.8
CCC(NC(=O)c1cc(-c2c(C)nn(C)c2C)n[nH]1)c1ccc(F)cc1 (stereo not drawn)	-1.0
COc1ccc(Oc2ccc(NC(=O)C3C4CC5OC(=O)C3C5C4)cc2)cc1 (stereo not drawn)	-6.7
O=C(O)[C@H]1C[C@H](C(=O)N2CCOCC2)CN(Cc2cc3ccccc3o2)C1	-13.0
Cc1c(C)c(C)c(CSCc2n[nH]c(=S)n2-c2ccc(F)cc2)c(C)c1C	-86.4*
CNC(=O)c1cc2c(nc1NC(C)C)CCN(Cc1cccnc1)CC2	-7.5
C[N+]1(CCCCC[N+]2(C)CCCC2)CCCC1	4.1
CCC(CO)NC(=O)c1ncn2c(C3CCN(C(=O)C4CCCC4)CC3)ccnc12 (stereo not drawn)	138.5
Cc1cc(C)n(CCCN(C)c2cc(N(C)C)ncn2)n1	4.1
Cc1ccc2cc(C3(O)CCN(C(=O)C4(C)CCCCO4)CC3)ccc2n1 (stereo not drawn)	-3.6
Fc1cnc(N2CCCC3(CC(Oc4cccnc4)CO3)C2)nc1 (stereo not drawn)	19.2
O=C1CC2(CCN(C(=O)c3cnccn3)CC2)c2ccccc2N1	-33.1
Cc1ccc(C(=O)N2CC[C@@H]3CO[C@H](CN4CCN(C)CC4)[C@@H]3C2)o1	5.2
NC(=O)c1cccnc1N1CCC(n2cc(CC3CCCCC3)nn2)CC1	194.9
O[C@@H]1CN(Cc2c(Cl)nc3sccn23)CC[C@H]1c1ccc2c(c1)OCO2	-43.1
CCOc1ccc(S(=O)(=O)NCCc2csc(-c3ccc(Cl)cc3)n2)cc1	-29.2
O=C(O)C(Cc1ccccc1)NC1=NCCN1 (stereo not drawn)	310.1
Cc1ccsc1C(CNC1CCSCC1)N(C)C (stereo not drawn)	-42.2
COCCN1C(=O)N(Cc2ccccc2)C2(CCN(Cc3ccc4c(c3)CCO4)CC2)C1=O	13.5
COc1ccc(NC(=O)CN2CCC3(CC2)N=C(c2cccc(Cl)c2)C(=O)N3)cc1	-23.7
CCn1cc(-c2n[nH]c(=O)n2Cc2ccccc2)cn1	3.9
Cc1ccc(C(=O)Nc2ccc(Cn3cncn3)cc2)c(=O)n1C	-42.9
Cn1cccc1C(=O)N1C[C@H]2CN(Cc3cccs3)C[C@H]2C1	-3.1
O=C(c1cccc(F)c1)N1C[C@@H]2OCCN(c3ncccn3)[C@H]2C1	-6.3
CN(/C=C/C=C1/C(c2ccccc2)=C(c2ccccc2)c2ccccc21)c1ccccc1	16.1
COCC(=O)Nc1ccc2c(c1)C(=O)N(C)C[C@@H](OC)[C@@H](C)CN(CCc1ccccc1)[C@H](C)CO2	26.8

Retrieved by structure from the list above:
SMILES	Tg IFNy HTS
CCOc1ccc(S(=O)(=O)NCCc2csc(-c3ccc(Cl)cc3)n2)cc1	-29.2
COc1ccc(NC(=O)CN2CCC3(CC2)N=C(c2cccc(Cl)c2)C(=O)N3)cc1	-23.7

Gathered by group: the compounds so far with a thiophene ring, fused or not.
SMILES	Tg IFNy HTS
Cc1ccsc1C(CNC1CCSCC1)N(C)C (stereo not drawn)	-42.2
Cn1cccc1C(=O)N1C[C@H]2CN(Cc3cccs3)C[C@H]2C1	-3.1

Carrying on:
SMILES	Tg IFNy HTS
CC(C)C(=O)NCC1CCC(c2c(C(=O)N(C)C)sc3ncccc23)CC1 (stereo not drawn)	11.6
CCc1c(C)nc(SCC(=O)c2ccc(F)cc2)[nH]c1=O	7.2
CCCC(=O)N1C[C@H]2CCc3nnc(-c4ccncc4)n3[C@H]2C1	8.5
Cc1ccc(S(=O)(=O)Nc2c(C)cc(O)c(S(=O)(=O)c3ccc(C)cc3)c2C)cc1	0.6
COc1ccc(CN(C)C[C@H]2OCCCC[C@H](C)Oc3ccc(NC(=O)C4CCCCC4)cc3C(=O)N([C@@H](C)CO)C[C@H]2C)cc1	?
Cc1cc(OCC(=O)O)cc(C)c1Cc1ccc(O)c(C(C)C)c1	18.4
CCCc1nc(C(=O)N2CCC(O)(c3ccccc3C)C2)cs1 (stereo not drawn)	5.8
C[C@H]1C[C@@H]2CCN(C(=O)c3cnccn3)C[C@@H]2O1	66.3
CNC[C@H]1OCCCC[C@@H](C)Oc2ccc(NS(=O)(=O)c3ccc(F)cc3)cc2C(=O)N([C@@H](C)CO)C[C@H]1C	4.1
Cc1noc(C)c1C(=O)N(C)C[C@@H]1OCc2ccccc2-c2ccccc2C(=O)N([C@@H](C)CO)C[C@@H]1C	-4.9
Cc1ccc(-c2ccnc(NCc3ccccc3-n3cncn3)n2)c(C)n1	0.3
CCC(=O)N1CC[C@@H]2[C@H]1c1cc(-c3ccc(C#N)cc3)ccc1N(C)[C@H]2CO	-65.5
CC(C)C(=O)NCc1csc(C2CCCN(C(=O)c3ccc(F)cc3)C2)n1 (stereo not drawn)	16.3
CCCCCCOC(=O)/N=C(/N)c1ccc(NCc2nc3cc(C(=O)N(CCC(=O)OCC)c4ccccn4)ccc3n2C)cc1	-1.3
Cc1ccc2c(=O)c3ccccc3n(CCCN)c2c1C	-86.6*!
O=C(NCc1cccs1)c1cccc(S(=O)(=O)N2CCCCC2)c1	8.7
CCc1ccccc1S(=O)(=O)N1CCC2(CC1)Nc1ccc(Cl)cc1-n1cccc12	10.9
Clc1ccccc1C1CCN(Cc2ncc[nH]2)C1 (stereo not drawn)	-2.8
CN1C(=O)CCc2cc(NC(=O)C3CCCC3)ccc21	11.8
CCCCCCNc1nc(Oc2ccccc2)nc(Oc2ccccc2)n1	-66.7
Cn1ccc(C(=O)N2CCCC(c3cc4ncccc4[nH]3)C2)n1 (stereo not drawn)	7.1
Cc1ccc(NC(=O)N2CCC3(CC2)CC(CC(=O)N(C)C)c2ccccc2O3)cc1 (stereo not drawn)	-0.6
CC(C)NC(=O)N1CC[C@@H](N2CCN(C)CC2)[C@@H]1Cc1cnn(C)c1	34.2
O=C(NC1CCCCC1)c1nc(Nc2ccc(F)cc2)c2ccccc2n1	?
O=C(Nc1ccc(F)cc1)N1CCC2(CC1)Nc1ccccc1-n1cccc12	i
Fc1ccc2nc(C3CCCN3Cc3nnc(-c4ccccc4)o3)[nH]c2c1 (stereo not drawn)	-12.6
Cc1ccc(-c2nnc(-c3ccc4c(c3)OCO4)o2)cc1	112.8
OC[C@@H]1[C@@H](c2ccccc2)C2(CN(Cc3nccs3)C2)N1CC1CCOCC1	-29.2
O=S(=O)(Oc1ccc(-c2csnn2)cc1)c1ccc(F)c(Cl)c1	-42.3
CC1=C(C(=O)Nc2ccc(Cc3ccncc3)cc2)C2(CCN(C(C)C)CC2)OC1=O	37.7
CCNC(=O)[C@@H]1C[C@H](N)CN1C(=O)c1cccc2cc(C)oc12	8.0
N#C[C@@H]1[C@H](c2ccc(-c3cncnc3)cc2)[C@H](CO)N1C(=O)Cc1ccccc1	-3.8
CC(=O)c1c(C)nc(-c2cccs2)n1O	25.8
CCc1cc(N2CCC3(CC2)CNC(=O)C3)nc(N2CCCC2)n1	-52.9
Cn1cccc1C(=O)c1cccc(Br)c1	0.0
CSc1ccccc1NC(=O)N1CCC2(CC1)CNC(=O)C2	-5.6
COc1ccc(Cl)cc1S(=O)(=O)N1CCC2(CC1)Nc1cc(C)ccc1-n1cccc12	3.4
COc1ccc2c3c(n(C)c2c1)[C@H](CO)N(Cc1ccccn1)CC31CN(Cc2ccccn2)C1	-17.2
COc1ccc(CCC(=O)N2CCC3(CC2)Nc2cc(OC)ccc2-n2cccc23)cc1	-82.0*
O=C(CC(F)(F)F)N1C[C@@H]2[C@H](c3ccccc31)[C@H](CO)N2CC1CCOCC1	-32.4

Some of the entries so far, with bars between the fields:
Structure | Tg IFNy HTS
Cc1ccc(C(=O)Nc2ccc(Cn3cncn3)cc2)c(=O)n1C | -42.9
Cn1cccc1C(=O)N1C[C@H]2CN(Cc3cccs3)C[C@H]2C1 | -3.1
O=C(c1cccc(F)c1)N1C[C@@H]2OCCN(c3ncccn3)[C@H]2C1 | -6.3
CN(/C=C/C=C1/C(c2ccccc2)=C(c2ccccc2)c2ccccc21)c1ccccc1 | 16.1

Remaining list, next part.
SMILES	Tg IFNy HTS
Cc1nn(-c2ccccc2)nc1C(=O)N(C)CCc1ccccn1	12.4
CN(C)CC1(O)CCN(C(=O)c2cc(C3CC3)[nH]n2)C1 (stereo not drawn)	4.6
CC1C=NC(S(=O)(=O)N2CC[C@H]3[C@@H](CO)N(C)c4ccc(C#Cc5cccnc5)cc4[C@H]32)=N1 (stereo partly drawn)	4.4
CC(C)C1=NOC(CNC(=O)c2scc3c2CCCC3)C1 (stereo not drawn)	42.0
CCC(=O)Nc1ccccc1-c1cc(OC)ccc1OC	-10.3
CCC(=O)N1CC2(C1)CN(Cc1cccc(Cl)c1)[C@H](CO)c1[nH]c3cc(OC)ccc3c12	-41.0
C[C@@H]1CN([C@@H](C)CO)C(=O)CCCn2cc(nn2)CO[C@@H]1CN(C)S(=O)(=O)c1ccc(-n2cccn2)cc1	-44.2
CCOCC1CN(C(=O)/C=C/c2cccs2)Cc2c1cnn2C (stereo not drawn)	17.8
C[C@H]1CN([C@@H](C)CO)C(=O)Cc2cc(NC(=O)Nc3ccc(F)cc3)ccc2O[C@@H]1CN(C)S(C)(=O)=O	-7.6
CSc1nsc(SC)c1C(=O)Nc1ccc(-c2csnn2)cc1	19.4
O=C(NC1CCCN(C(=O)c2cccs2)C1)c1cccc2ccnn12 (stereo not drawn)	66.0
CCc1ccccc1OCCN1CCCC2(C1)CN(C)C(=O)O2 (stereo not drawn)	57.0
CC1(C)CC2(CC(C)(C)NC(=O)N2)NC(=O)N1	17.6
C[C@H](CO)N1C[C@H](C)[C@H](CN(C)Cc2ccccc2C(=O)O)OCc2cnnn2CCCC1=O	-0.4
CCS(=O)(=O)N1CCC2(CC1)OC(=O)C(C)=C2C(=O)Nc1cccc(Cl)c1	65.1
CNC(=O)c1ccc(C2CCCN2c2nc(CCN)nc3ccccc23)s1 (stereo not drawn)	30.5
CC(C)CC(NC(=O)c1ccccc1F)c1nc2cccnc2n1C (stereo not drawn)	34.0
COc1ccc(S(=O)(=O)N2CCc3nc(CNC(=O)C4CCC4)n(C)c3C2)cc1	-11.7
O=C(C1CC1)N1CCC2(C1)c1ccccc1S(=O)(=O)N2Cc1ccc(F)cc1 (stereo not drawn)	93.3
CCOc1cc2c3c(c1)C1(NCCc4c1[nH]c1ccccc41)C(=O)N3C(C)(C)C=C2C (stereo not drawn)	-37.1
Cc1cc(C)n(CCCC(=O)N2CC(N3CCCCC3C)C2)n1 (stereo not drawn)	-0.2
Cc1nc2nc(CC(=O)Nc3nc4c(s3)CCCCCC4)[nH]n2c(=O)c1C	-39.0
CCOC(=O)C1=C[C@@H](OC(CC)CC)[C@H](NC(C)=O)[C@@H](N)C1	20.5
CCCC1(C2CCNCC2)NC(=O)N(CCCCF)C1=O (stereo not drawn)	-24.5
O=C(NCc1n[nH]c2c1CCC2)c1coc2c1C(=O)CCC2	7.0
CCCc1cc(C(=O)Nc2nc(SC)ns2)n(C)n1	365.5
O=C(Cn1c(=O)cc(-c2nc(C3CC3)no2)c2ccccc21)NCc1cccc(Cl)c1	-9.8
Cc1cc(C)cc(S(=O)(=O)N2CCC3(CC2)NCCN=C3NCc2ccc(F)cc2)c1	2.1
CC(C)[C@@H](Cn1nnc2ccccc21)NC(=O)c1ccc2c(c1)n(C)c(=O)n2C	17.5
C[C@H](CO)N1C[C@H](C)[C@H](CN(C)Cc2cccc(C(F)(F)F)c2)OCc2cnnn2CCCC1=O	179.4
CN1C(=O)c2cc(NC(=O)Cc3cccs3)ccc2OC[C@@H]2O[C@H](CC(=O)NCCCN3CCOCC3)CC[C@@H]21	8.2
O=C1O[C@@H]2CN(c3cnc4ccccc4n3)C[C@@H]2N1CCCN1CCOCC1	2.6
Cc1ccc2c(c1)C(=O)C(=O)N2CC(=O)Nc1ccc(N2CCOCC2)cc1	-1.3
COc1ccccc1-c1ccc(NC(=O)c2sc(NS(C)(=O)=O)nc2C)cc1	110.8
CC(C)c1cc(C2CCN(C(=O)c3cccc(N4CCNC4=O)c3)CC2)[nH]n1	33.7
CC1CN(C2=NCCN2S(=O)(=O)c2ccc(Cl)cc2)CC(C)O1 (stereo not drawn)	-11.7
COC(=O)CC(=O)CCn1[nH]c(=O)ccc1=O	-6.6
CCOC(=O)C(NC(C)=O)C(OC(C)=O)c1cccc(N(CCO)CCO)c1 (stereo not drawn)	11.8
Nc1c2c(=O)[nH]c(O)cc2nn1-c1ccccc1	80.7

Only part of the results is shown; the hit share may differ from the screen's.
